FGF22 binding: FGF22 (human) thermal shift binding | 340,000 compounds, 1.5% hits | calls only at 9.99 µM | recombinant FGF22 thermal shift, SYPRO orange fluorescence; percent of sucrose octasulfate shift, DMSO zero;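 active = melting point raised past a set limit in the mean and every replicate; inconclusive = no clear call; three in four hits are not shown here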
Target sequence (Q9HCT0 whole entry, looked up): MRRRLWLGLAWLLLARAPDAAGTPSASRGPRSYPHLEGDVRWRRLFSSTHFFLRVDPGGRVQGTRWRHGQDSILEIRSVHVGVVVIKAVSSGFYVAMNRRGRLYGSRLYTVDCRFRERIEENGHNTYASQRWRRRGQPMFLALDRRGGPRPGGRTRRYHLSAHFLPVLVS
Vif A3G: HIV-1 Vif–A3G interaction blockers – biochemical, TR-FRET, GST-Vif 1-94, biotin-A3G peptide, dose response retest, primary screen (AID 1117319) | TR-FRET GST-Vif / biotin-A3G peptide binding; higher % means a stronger effect; test concentration not given here; strong numbers were not always called active | inhibition, %; hits with a dose series show IC50 in µM | 260,000 compounds, 0.57% hits;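 active = above the screen mean plus three standard deviations and confirmed in dose response; inconclusive = results disagree or hit not tested in dose response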;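 note: Vif residues 1-94 fused to GST binding biotinylated APOBEC3G peptide 110-148; 0% = full assay without inhibitor and 100% = GST in place of GST-Vif; retest series ran down from 100 µM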
ALR inh: inhibitors of human sulfhydryl oxidase ALR; AID 485317; P55789; 290,000 compounds, 3.8% hits; inhibition, % (concentration not given with the values); purified ALR, DTT oxidation, H2O2 HRP-luminol luminescence;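 active = mean and each replicate at 75% or more; inconclusive = only one of the two met; inactive = neither met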;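 note: stock transfer was 7.5 nL into about 7.5 µL; 0% = neutral wells and 100% = wells with inactivated enzyme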
Target sequence (P55789 whole entry, looked up): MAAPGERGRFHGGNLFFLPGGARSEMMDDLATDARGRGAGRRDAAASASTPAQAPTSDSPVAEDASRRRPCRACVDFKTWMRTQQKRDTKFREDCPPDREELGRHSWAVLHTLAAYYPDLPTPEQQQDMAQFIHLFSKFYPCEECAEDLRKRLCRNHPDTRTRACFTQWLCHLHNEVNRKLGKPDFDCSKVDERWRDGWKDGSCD
E coli growth: E. coli growth inhibition; Escherichia coli growth, OD600, 23 h; hits give low values; AID 1053175; 330,000 compounds, 0.21% hits; OD600 absorbance (test concentration not listed);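 active = OD600 absorbance below the run mean of sample wells minus 3.6 SD, in any replicate, cut at about 0.56 in these data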;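 note: stock transfer was 300 nL into about 60 µL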
MLL AF4-AF9 inh: inhibitors of human MLL-AF4/AF9 interaction. P42568. AlphaScreen, biotin-AF4 peptide binding to FLAG-AF9. inhibition, % at 10 µM. 350,000 compounds, 0.47% hits. AID 651704;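 active = every replicate reaching a set inhibition limit, whatever the replicate mean, cut at about 25% in these data; inconclusive = mean inhibition reaches that limit but some replicates miss it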;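 note: 0% = plate neutral control median and 100% = total signal loss; the record names both 10 and 1 µM as test concentration; the first replicate is given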
Target sequence (P42568 whole entry, looked up): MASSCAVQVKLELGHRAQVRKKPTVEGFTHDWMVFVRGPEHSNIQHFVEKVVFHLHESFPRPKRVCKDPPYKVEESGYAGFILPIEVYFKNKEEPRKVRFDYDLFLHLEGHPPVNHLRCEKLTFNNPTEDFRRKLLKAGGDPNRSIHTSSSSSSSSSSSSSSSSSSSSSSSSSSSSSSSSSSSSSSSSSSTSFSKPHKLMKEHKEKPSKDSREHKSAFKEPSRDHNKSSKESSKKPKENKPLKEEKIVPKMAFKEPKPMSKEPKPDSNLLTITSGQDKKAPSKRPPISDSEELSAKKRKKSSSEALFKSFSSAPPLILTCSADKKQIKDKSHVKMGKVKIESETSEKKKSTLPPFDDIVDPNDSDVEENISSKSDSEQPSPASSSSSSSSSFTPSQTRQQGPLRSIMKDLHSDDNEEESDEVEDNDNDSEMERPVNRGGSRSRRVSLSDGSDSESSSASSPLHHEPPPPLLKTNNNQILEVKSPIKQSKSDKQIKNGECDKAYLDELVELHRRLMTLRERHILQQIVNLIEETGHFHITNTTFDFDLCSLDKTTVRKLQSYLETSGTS
rRNA inh HTS: inhibits bacterial ribosomal RNA function over humanized ribosomes; GFP signal change (wild-type ribosome), % (no concentration beside the values); E. coli WT GFP vs humanized-ribosome RFP mutants, fluorescence, 24 h; hits give low values; DMSO median 0, no signal -100; AID 720706; 350,000 compounds, 1.6% hits;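 active = significant combined selectivity score with lowered wild-type GFP, culture density cut under 30%, mutant RFP and density less affected; inactive = any of these conditions unmet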; note: one replicate is shown; some compounds called inactive have numbers as strong as hits
HNF4A DNA FP: change in binding of human HNF4 alpha to DNA | 360,000 compounds, 0.3% hits | AID 1224865 | HNF4a-FITC DNA binding, fluorescence polarization, 1 h | activity change, % at 10 µM; in the data active = activity change above about 30%, passing the limit was not always enough;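 note: controls were the assay level and a saturating level of protein; the project sought stronger binding though the title names inhibitors; some compounds called inactive have numbers as strong as hits; positive values seem to mean higher polarization but the record does not say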
rRNA inh HTS OD600: second read-out of rRNA inh HTS, no call of its own (marks repeat the call); OD600 change, %; measured here: OD600 growth;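 optical density of the mix in the first replicate; 0 = DMSO median and -100 = no signal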
rRNA inh HTS RFP: also measured in rRNA inh HTS; calls as there; RFP signal change, %; measured here: RFP humanized mutant strains;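 first replicate; 0 = DMSO median and -100 = no signal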
* marks the source's active call; other numbers are inactive results; i = inactive; ? = inconclusive; nt = not tested or not shown.

SMILES	FGF22 binding	Vif A3G	ALR inh	E coli growth	MLL AF4-AF9 inh	rRNA inh HTS	rRNA inh HTS OD600	rRNA inh HTS RFP	HNF4A DNA FP
Cc1cccc(OCC(=O)Nc2c3c(nn2C(C)(C)C)CS(=O)(=O)C3)c1	i	4%	-17	0.67	0.7	16	11	2.0	0.0
CC(C)(C)NC(=O)C(c1ccnc2ccccc12)n1c(=O)c(-c2cc3ccccc3[nH]2)nc2ccccc21 (configuration not stated)	i	nt	nt	nt	-25	-2	3	0.2	4.0
CCOC(=O)CSc1nnc(NC(=O)CN2CCN(C=O)CC2)s1	i	2%	-2	0.69	-0.4	5	15	-3.0	1.1
COc1ccc(CNc2oc(-c3cccc4ccccc34)nc2P(=O)(OC)OC)cc1	i	-8%	-21	0.67	-1.5	-25	-36	3.1	2.6
O=C(CSc1nnc(-c2ccccc2)c(-c2ccccc2)n1)N1CCc2ccccc21	nt	-1%	-8	0.67	nt	nt	nt	nt	-0.4
CCOC(=O)COn1c(=O)c(-c2ccco2)[n+]([O-])c2ccccc21	nt	17%	10	0.69	nt	nt	nt	nt	2.8
NCCCC[C@H]1CNC(=S)N1CCc1cc(C(F)(F)F)cc(C(F)(F)F)c1	i	nt	-21	nt	4.9	-22	-43	-13	-4.2
COc1ccccc1CNC(=O)c1cc(-c2ccccc2)n(Cc2cc(C)no2)n1	i	nt	-3	0.69	6.0	-11	-17	-3.9	0.5
COc1cccc(NC(=O)CSCC(=O)O)c1	nt	5%	40	0.65	nt	nt	nt	nt	-1.2
CS(=O)(=O)N1N=C(c2ccco2)CC1c1ccc(Cl)cc1Cl (configuration not stated)	i	-6%	1	0.63	6.6	7	6	4.1	-1.5
Cc1ccc(CNC(=O)c2ccc3c(=O)n(CCCN4CCCC4=O)c(=S)[nH]c3c2)cc1	nt	-5%	-8	0.71	nt	nt	nt	nt	-1.4
COc1ccccc1NC(=O)N1CCCC1C(=O)Nc1nnc(C(C)C)s1 (configuration not stated)	nt	?	-3	0.71	nt	nt	nt	nt	-0.7
O=C(CSc1nnc(-c2ccco2)o1)N1CCCCC1	i	nt	14	0.68	-2.4	-1	-10	0.9	1.4
CN(c1cccc(NC(=O)c2ccc(Cl)c(S(=O)(=O)Nc3ccccc3)c2)c1)S(C)(=O)=O	nt	11%	-5	0.68	nt	nt	nt	nt	1.2
CC(=O)N1c2ccc([N+](=O)[O-])cc2NC(=O)CC1C (configuration not stated)	nt	-9%	-6	0.67	nt	nt	nt	nt	-1.8
O=C(NCCc1ccccc1)C(c1cccs1)N(C(=O)c1csnn1)C1CC1 (configuration not stated)	nt	9%	-14	0.66	nt	nt	nt	nt	-2.4
Oc1ccc(C2N=C(c3ccccc3)NC(c3ccccc3)=N2)cc1	nt	13%	nt	0.67	nt	nt	nt	nt	-4.2
O=C(N/N=C/c1ccccc1F)C(=O)N1CCCCCC1	i	nt	nt	nt	0.5	3	5	-0.3	0.4
O=C(N/N=C\c1cn[nH]c1-c1ccccc1)c1ccc([N+](=O)[O-])cc1	nt	8%	-12	nt	nt	nt	nt	nt	2.6
CCOC(=O)CON1C(=O)C(=O)N(OCC(=O)OCC)[C@H]2CCCC[C@H]21	i	nt	1	0.64	-6.9	21	7	1.6	4.9
Cc1ccccc1CC(=O)NC1CCCCCC1	i	nt	8	0.67	-1.6	15	13	0.0	3.8
CC(/C=N/NC(=O)Cn1cnc2c1c(=O)n(C)c(=O)n2C)=C\c1ccco1	i	nt	-15	nt	-0.4	12	16	7.8	-1.4
O=C(NC(=O)N1CCSCC1)c1c(Cl)cccc1Cl	i	2%	-3	0.67	-11	8	8	1.1	1.7
CCN1[C@@H]2Cn3c(ccc(-c4ccncc4)c3=O)[C@H]1[C@@H](C(=O)NCCc1cn(C)cn1)[C@@H]2CO	i	nt	nt	nt	0.5	-3	1	1.1	nt
Cc1ccc(OCCNC(=O)C2CCCCC2)cc1	i	-1%	-4	0.67	-2.4	5	9	0.9	-0.8
(more compounds)
SMILES	FGF22 binding	Vif A3G	ALR inh	E coli growth	MLL AF4-AF9 inh	rRNA inh HTS	rRNA inh HTS OD600	rRNA inh HTS RFP	HNF4A DNA FP
COc1ccc(NC(=O)N(C)C[C@H]2OCCCC[C@@H](C)Oc3ccc(NS(=O)(=O)c4ccc(Cl)cc4)cc3C(=O)N([C@H](C)CO)C[C@@H]2C)cc1	i	nt	nt	nt	2.1	1	5	-3.4	nt
CS(=O)(=O)c1ccc2nc(NC(=O)Oc3ccccc3)sc2c1	nt	-2%	-3	0.73	nt	nt	nt	nt	-2.8
CC(/C=C/c1ccccc1F)=N\NC(=O)c1ccc(Cl)cc1	nt	nt	-18	nt	2.0	11	3	-0.4	1.6
Cc1ccc(S(=O)(=O)CCSc2nc(C)cc(C)c2C#N)cc1	nt	?	-3	0.66	nt	nt	nt	nt	0.6
COc1ccc(-c2cc(C(=O)N3CCN(c4cccc(C)c4C)CC3)c3ccccc3n2)cc1OC	nt	nt	-3	0.69	nt	12	3	9.4	-5.8
COc1ccc(-c2nnn(CC(=O)N(CCCN3CCOCC3)C(C(=O)NC3CCCC3)c3ccc(C)o3)n2)cc1 (configuration not stated)	i	-3%	3	0.67	-2.1	2	-5	-0.7	4.1
CNC(=S)/N=C/NOCc1c(Cl)cccc1Cl	i	1%	7	nt	1.4	8	12	0.8	-1.5
COC(=S)Nc1cccc(C(F)(F)F)c1	i	-8%	-1	0.67	nt	14	6	1.3	-2.8
C[C@H](NS(=O)(=O)c1ccccc1)C(=O)OCC(=O)NC(=O)Nc1ccc2c(c1)OCCO2	i	-15%	-18	0.7	-12	5	-9	1.2	-3.0
Cc1cccc(S(=O)(=O)NC(=O)C2(C)CCN2C(=O)c2c(C)noc2C)c1 (configuration not stated)	i	nt	nt	nt	0.7	12	7	0.1	-4.3
COc1ccc(C(=O)N/N=C/c2ccccc2OC(=O)c2ccccc2)cc1	i	nt	nt	nt	0.1	-2	-1	-2.4	4.0
Cc1ccccc1NS(=O)(=O)c1cc(S(C)(=O)=O)ccc1C	i	-5%	-6	0.68	-4.4	nt	nt	nt	0.0
O=c1cc(N2CCCCC2)c(-c2ccccc2)nn1Cc1c(Cl)cccc1Cl	nt	8%	nt	0.8	nt	nt	nt	nt	-4.4
O=C(CN1C(=O)NC(CCc2ccccc2)C1=O)Nc1ccccc1C(F)(F)F (configuration not stated)	i	nt	-13	0.66	2.2	3	5	1.0	-1.7
CCN1CCN(C(=O)c2ccc(Cl)c(S(=O)(=O)N(C)c3ccccc3)c2)CC1	i	-8%	-4	0.65	0.1	4	9	-0.4	-1.3
C[C@@H]1CN([C@@H](C)CO)C(=O)c2cc(NS(=O)(=O)c3ccc(F)cc3)ccc2O[C@@H](C)CCCCO[C@@H]1CN(C)C(=O)Nc1ccc(C(F)(F)F)cc1	i	nt	nt	nt	-3.8	1	10	-2.8	nt
NNC(=O)c1nnn(-c2nonc2N)c1-c1cccs1	nt	5%	-6	0.67	nt	nt	nt	nt	1.0
NC(N)=N/N=C/c1ccc(OCc2ccc(Cl)cc2)cc1	nt	3%	3	nt	nt	nt	nt	nt	3.5
COCCN(CC(=O)NCc1ccc(F)cc1)C(=O)CCC(=O)Nc1ccccn1	nt	4%	-1	0.76	nt	nt	nt	nt	-2.7
COc1ccc(C(=O)Nc2cccc(S(C)(=O)=O)c2)cc1OC	i	nt	-3	0.67	0.6	14	3	-0.7	2.2
C[C@H](CO)N1C[C@H](C)[C@H](CN(C)C(=O)C2CC2)Oc2cc(C#CC3CC3)ccc2S1(=O)=O	i	nt	nt	nt	1.5	0	8	0.3	nt
CCCCCC(=O)NNC(=S)NC(=O)c1cccc([N+](=O)[O-])c1	nt	7%	?	0.62	nt	nt	nt	nt	-2.4
COc1cccc(C(=O)NNC(=O)c2ccc3ccccc3c2)c1	i	6%	nt	0.69	-8.5	4	16	1.7	2.6
Cc1ccc(NC(=O)CNCc2ccccc2)cc1Br	i	-1%	-4	0.61	6.3	-14	-18	10	-0.3
CN(C)S(=O)(=O)c1cccc(COC(=O)CNC(=O)c2ccc(Br)o2)c1	i	-3%	nt	0.67	4.6	6	11	0.6	17
Further compounds follow.
SMILES	FGF22 binding	Vif A3G	ALR inh	E coli growth	MLL AF4-AF9 inh	rRNA inh HTS	rRNA inh HTS OD600	rRNA inh HTS RFP	HNF4A DNA FP
Cc1ccc(N(Cc2ccccc2)C(=O)c2cc(S(=O)(=O)N3CCOCC3)ccc2N2CCCC2)cc1	i	8%	-12	0.67	9.9	-7	-5	2.7	2.1
COc1cc(-c2cnc3c(NC=O)cc(-c4cccnc4)cn23)cc(OC)c1OC	i	nt	nt	nt	3.3	7	10	5.6	-0.5
Cc1cnc(C(=O)Nc2ccccc2-c2nnn(CC(=O)NC3CCCC3)n2)cn1	nt	3%	-10	0.7	nt	nt	nt	nt	-1.4
COc1cccc(C(=O)Nc2ccc3c(c2)OC[C@@H](C)N(CC2CC2)C[C@@H](C)[C@@H](OC)CN(C)C3=O)c1	i	nt	nt	nt	1.0	-1	-5	0.1	nt
Cc1c(NC(=O)C(C)Sc2nnc(-c3ccccc3)o2)c(=O)n(-c2ccccc2)n1C (configuration not stated)	nt	20%	1	0.74	nt	nt	nt	nt	-0.2
COc1ccc(/C=N/n2cnnc2)cc1Br	i	3%	-1	nt	-1.7	10	6	-0.2	0.6
C[C@H](CO)N1C[C@H](C)[C@@H](CN(C)Cc2ccncc2)Oc2ccc(NC(=O)CCN3CCOCC3)cc2CC1=O	i	nt	nt	nt	2.7	1	-3	-1.8	nt
COc1cc(F)ccc1S(=O)(=O)N1CCN(Cc2ccccc2)CC1	i	nt	-26	0.65	-1.7	6	-4	-0.2	2.2
CCN(CC)C(=O)c1[nH]cnc1C(=O)Nc1cccc(Cl)c1	i	nt	-1	0.69	-1.2	1	7	4.1	3.6
C[C@H]1CN([C@@H](C)CO)C(=O)c2cccc(NS(=O)(=O)c3cccs3)c2O[C@@H]1CN(C)C(=O)Nc1ccc2c(c1)OCO2	i	nt	nt	nt	0.2	2	-2	-0.6	nt
CNC(=O)c1c(NC(=O)c2cccc(N3C(=O)CCC3=O)c2)sc2c1CCCC2	i	-2%	-5	0.67	-24	-5	2	6.0	-2.5
Cc1cc([N+](=O)[O-])ccc1NC(=O)COc1nsnc1N1CCOCC1	i	nt	nt	0.69	-2.4	4	6	-2.2	1.9
C[C@@H]1CN([C@H](C)CO)C(=O)c2cccc(NS(=O)(=O)c3cccs3)c2O[C@@H]1CN(C)S(=O)(=O)c1cccs1	i	nt	nt	nt	-12	-3	-1	0.8	nt
Cc1ccc(S(=O)(=O)Nc2cccc3c2O[C@H](CN(C)S(=O)(=O)c2ccc(C)cc2)[C@H](C)CN([C@H](C)CO)C3=O)cc1	i	nt	nt	nt	1.6	-3	-5	3.1	nt
Cc1cc(SCC(=O)c2ccccc2)nc(=O)[nH]1	i	nt	nt	0.68	-2.6	14	-5	7.8	6.0
CCOC(=O)c1cc2c(C)nn(-c3ccccc3)c2s1	nt	-2%	3	0.78	nt	nt	nt	nt	0.6
O=C(C[C@@H]1C[C@@H]2c3cc(NC(=O)CC4CC4)ccc3O[C@@H]2[C@@H](CO)O1)NCc1ccccn1	i	nt	nt	nt	0.3	2	6	1.2	nt
O=C(Nc1ccc2c(c1)OCCO2)C1c2ccccc2OCC(=O)N1CCc1ccccc1 (configuration not stated)	i	nt	nt	nt	1.0	8	11	-1.4	-0.8
COc1ccccc1CNC(=O)C[C@H]1C[C@H]2c3cc(NC(=O)Nc4ccccc4F)ccc3O[C@H]2[C@@H](CO)O1	i	nt	nt	nt	-1.0	3	12	3.4	nt

Only part of the results is shown; the hit share may differ from the screen's.
